# Bioassay records (PubChem)
# MgrA DNA FP = S. aureus MgrA activity modulators, primary screen, biochemical, S. aureus Newman, fluorescence polarization. MgrA-DNA binding. inhibition, %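 (about 10 µg/mL by stock and volumes)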. 84,000 compounds, 0.13% hits. AID 602314, 2012;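 active = above 50% in either of two replicates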;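 note: 0% = protein plus DNA without compound and 100% = DNA alone without protein; higher means less MgrA bound to DNA so lower polarization; one replicate is shown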
# S aureus helic = inhibitors of S. aureus replicative helicase, primary screen, biochemical, fluorescence unwinding readout. 120,000 compounds, 0.05% hits. AID 485395, 2010. purified S. aureus helicase, fluorescence unwinding assay; about half of the hits fall short of the stated cut. inhibition, %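 (tested at about 80 µM)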;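 active = both duplicates at 50% or more, or one of them with a favoured structure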;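 note: 0% = mean of negative control wells and 100% = mean of positive control wells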
# The depositor's hits bear a star; nt = no result given; & = joins results of further samples.
# Every second line gives: MgrA DNA FP, S aureus helic
CCOC(=O)c1nnc(Cc2ccc(F)cc2)o1
→ -1.6, 7
NC(=S)COc1cc(Cl)cc(Cl)c1
→ nt, 21
Cc1ccc(CN2CCN(c3ncccn3)CC2)c(C)c1
→ -12, 19
CC(=O)Oc1cccc(N2C(=O)C3C(C2=O)C2(C)C=CC3(C)O2)c1 (stereo unspecified)
→ -0.5, nt
Cc1c(C(=O)Nc2ccccc2Cl)sc2nc3n(c(=O)c12)N=C(c1cc(O)ccc1O)CS3
→ 1.5, 11
NC12CC3CC(CC(C3)C1)C2
→ 0.0&5.2&3.5, nt
CCn1c(SCCNS(=O)(=O)c2ccc(C)cc2)nnc1-c1ccc(Cl)cc1
→ nt, -3
COCCn1c(=NC(=O)/C=C/c2cccs2)sc2cc(Br)ccc21
→ nt, 20
CCCC(=O)Nc1cc(C)c(O)c(-c2nc3cc(Cl)ccc3o2)c1
→ -4.0, 4
N#CC(C#N)=Cc1ccc(-c2cc(C(F)(F)F)ccc2Cl)o1
→ 3.1, nt
NC(=O)CSc1nc2ccccc2n1CCOc1ccc(Cl)cc1
→ -0.6, nt
COc1ccc(NC(c2ccccn2)c2c(C)[nH]c3ccccc23)c(OC)c1 (stereo unspecified)
→ nt, -3
NC(=S)N1CCCCC1
→ nt, -20
O=C(COC(=O)C(Cc1ccccc1)N1C(=O)c2ccccc2C1=O)c1ccc(Br)cc1 (stereo unspecified)
→ 1.4, 3
Cn1c(C(C#N)C(=O)c2ccc(-c3nc4ccccc4s3)s2)nc2ccccc21 (stereo unspecified)
→ nt, -53
O=C(Nc1ccccc1)NN1CC(=O)N(c2ccc(Cl)cc2)CC1=O
→ nt, 19
NS(=O)(=O)c1ccc(CCNC(=O)c2ccc(N3CCCC3=O)cc2)cc1
→ nt, -1
Cc1nn(CCC(N)=S)c2nc(-c3ccccc3)ccc12
→ nt, 26
COC(=O)c1cc(I)c(OC(C)=O)c(I)c1
→ -3.9, nt
CN1CCN(C(CNS(=O)(=O)c2ccccc2)c2cccnc2)CC1 (stereo unspecified)
→ nt, -19
CCOC(=O)C1NC(=O)CC1c1ccccc1 (stereo unspecified)
→ -1.0, 10
N#Cc1ccccc1COC(=O)c1ccc(-n2cccc2)cc1
→ nt, 15
O=C(O)COCC(=O)Nc1ccccn1
→ 0.8, nt
CCOC(=O)C1(c2cn(C)c3ccccc23)Sc2ccccc2NC1=O (stereo unspecified)
→ nt, -5
CSc1c(C#N)c(N)nc(SCc2ccc(C)cc2)c1C#N
→ 0.6, nt
O=C(c1cc(=O)c2ccccc2o1)N1CCN(c2n[nH]c(=O)[nH]c2=O)CC1
→ nt, 7
Cc1c(C(=O)O)sc2nc(-c3ccccc3)cn12
→ -2.3, 4
Cc1c(Cl)cccc1NC(=O)CCn1cnnn1
→ -2.6, 6
O=C1CCC(=O)N1c1ccc2c(c1)oc1ccccc12
→ 0.6, 2
CCOc1cc(/C=C2\SC(=S)NC2=O)cc(Cl)c1OC(=O)c1ccc(OC)cc1
→ 13, 11

# Full records, quoted from the list. Order of values: MgrA DNA FP, S aureus helic
# Results for `O=C(O)COCC(=O)Nc1ccccn1` → 0.8, nt
# Results for `N#Cc1ccccc1COC(=O)c1ccc(-n2cccc2)cc1` → nt, 15

# (further entries)
# Every second line gives: MgrA DNA FP, S aureus helic
Cc1cc(=O)oc2cc(NC(=S)N3CCCC3)ccc12
→ -1.4, 16
O=C(Cc1c(C(=O)O)[nH]c2ccc(Cl)cc12)NCC1COc2ccccc2O1 (stereo unspecified)
→ 2.1, 5
CC1(C(=O)O)Sc2[nH]c(=O)sc2C2c3ccccc3OC(=O)C21 (stereo unspecified)
→ nt, -11
O=C(O)C1C2CCC(CC2)C1C(=O)N1CCN(S(=O)(=O)c2ccc(F)cc2)CC1 (stereo unspecified)
→ 12, 2
COc1cc(-c2nnc(SCc3nc4ccccc4s3)o2)cc(OC)c1OC
→ nt, -3
CCOC(=O)c1ccc(NC(=O)CCCN2CCN(Cc3ccccc3)CC2)cc1
→ 0.1, nt
OC(CNCc1ccc(OC(F)(F)F)cc1)C(F)(F)F (stereo unspecified)
→ 0.5, nt
C=CCn1c(CSc2nnc(-c3ccccc3)n2C)n[nH]c1=S
→ -1.5, nt
O=S(=O)(c1cccc(-c2nnc(Sc3ncnc4sc5c(c34)CCC5)o2)c1)N1CCCCC1
→ nt, -5
O=C1CN(C(=O)C2CC2)C(c2ccccc2)c2cc(Cl)ccc2N1 (stereo unspecified)
→ nt, 14
COc1ccccc1C(=O)COC(=O)Cc1ccccc1F
→ 0.4, 10
CCOC(=O)C1=CN(Cc2ccc(F)cc2)C=C(C(=O)OCC)C1c1ccc(C(F)(F)F)cc1
→ -0.6, -1
CC1(C)C(C)(C(=O)O)C12CCC2C(=O)NCc1ccco1 (stereo unspecified)
→ -2.9, -3
S=C(Nc1cccnc1)N(CCc1ccccc1)Cc1ccccc1
→ -2.4, 9
Cc1cccc(NC(=O)NCc2nc(-c3cccc(C)c3)no2)c1
→ 1.8, -11
CC(=O)N1N=C(N)SC1c1ccccc1 (stereo unspecified)
→ -0.2, 5
CCCCN(C)c1sc(S(C)(=O)=O)nc1S(=O)(=O)c1ccc(C)cc1
→ -0.7, 8
CCN1CCN(C(=O)/C(C#N)=N/Nc2cccc3c(=O)[nH][nH]c(=O)c23)CC1
→ nt, -8
O=C(CN1CCN(c2ncnc3scc(-c4ccc(Cl)cc4)c23)CC1)NC1CC1
→ nt, 4
CN(C(=O)COC(=O)c1ccc(=O)[nH]c1)C1CCCCC1
→ nt, -6
O=C(CSc1nnc(NC(=O)C2CCCCC2)s1)Nc1ccc(F)cc1
→ nt, -16
O=S(=O)(/C=C/c1ccccc1)N1CCN(Cn2cnc3ccccc32)CC1
→ nt, 4
CCc1ccc(OCC(N)=O)cc1
→ 0.9, 10
O=C(COc1ccc2c(c1)OCO2)NCCC1=CCCCC1
→ nt, -4
COc1ncnc(NS(=O)(=O)c2ccc(N)cc2)c1OC
→ 0.2, nt
CCOC(=O)c1nc(C)nc(Sc2ccccc2)c1C
→ -0.6, nt
COc1ccc(Cn2ccc3nc4ccn(Cc5ccc(OC)cc5)c(=O)c4cc3c2=O)cc1
→ nt, 11
Cc1cc(C)c(C#N)c(=O)[nH]1
→ nt, -1
COc1cc(/C=C2\C(=O)N(c3ccc(S(N)(=O)=O)cc3)N=C2C)cc(Br)c1OCc1ccccc1
→ 6.4, nt
Cc1ccc(NNC(=O)c2c(-c3ccccc3)noc2C)cc1C
→ nt, 26
S=C(NC1CCCCC1)N1CCn2cccc2C1c1cccs1 (stereo unspecified)
→ 1.8, 10
Cc1nnc(Nc2ccc(C(=O)N3CCCCC3)cc2)c2ccccc12
→ -2.7, 7
CCc1ccccc1NC(=S)N(CCN(C)C)Cc1cccs1
→ 0.1, 15
O=[N+]([O-])c1ccc(Oc2ccc(C3SCCS3)cc2)cc1
→ 2.3, nt
COc1ccc(N(C)c2ncnc3onc(-c4ccc(Cl)cc4)c23)c(OC)c1
→ nt, 26
CC(C)NC(=O)COCc1cc(-c2ccco2)on1
→ nt, 8
COc1cccc(OCC(O)CN2CCN(c3ccc(F)cc3)CC2)c1 (stereo unspecified)
→ nt, -23
COCCN1C(=O)c2ccc(C(=O)Nc3ccccc3)cc2C1=O
→ -0.8, 2
FC(F)Oc1ccccc1/C=N/n1cnc2ccccc21
→ nt, 14
CCc1ccc2ncc(S(=O)(=O)c3ccccc3)c(N3CCCCC3)c2c1
→ 0.4, 17
CCN(c1ccccc1C(=O)O)S(=O)(=O)c1ccc2c(c1)n(C)c(=O)n2C
→ nt, -12
COC(=O)C1=C(C)N(c2ccccc2Cl)C(=O)/C1=C\c1cccs1
→ 1.3, 14
CCN(CC)CCNc1ncnc2c1sc1nc(C(C)C)c3c(c12)CCCC3
→ -2.4, 12
Cc1ccc(N=Cc2ccccc2)cc1
→ -1.2, nt
O=C(O)C1CC2CC1CCC2O (stereo unspecified)
→ -2.2, nt
CN(NC(=O)NC(=O)c1c(Cl)cccc1Cl)c1ccc(Cl)cc1[N+](=O)[O-]
→ 0.1, nt
O=C(CN1CCc2ccccc21)N1CCCc2ccccc21
→ -0.9, nt
COC(=O)Cc1nc(C)cs1
→ nt, 1
CC(C)CN(CC(C)C)C(=O)c1cc2c(Cl)nc3ccccc3c2s1
→ -0.2, 2
N#Cc1ccc(COc2cnnc3ccccc23)cc1
→ nt, -4
COCc1cc(C)nc(OCC2=NN(C(C)=O)C(c3cccc(OC)c3)O2)c1C#N (stereo unspecified)
→ nt, 5
O=C(Cn1c(=O)oc2cc(S(=O)(=O)NCc3ccccc3)ccc21)NC1CCCCC1
→ -0.2, 3
O=S(=O)(Oc1ccc(Oc2ccccc2)cc1)c1cc(Cl)c(Cl)cc1Cl
→ -4.2, nt
CN(C)c1nc(N)nc(Cn2ccnc2)n1
→ -4.4, 0
COc1ccc(CCC(=O)NNc2ccccc2)cc1
→ nt, 9
O=C(c1cnn(-c2cccc(F)c2)c1-n1cccc1)N1CCc2ccccc21
→ nt, -6
CC(OC(=O)c1cccc2ccccc12)C(N)=O (stereo unspecified)
→ nt, 27
CCc1ccc(CN(Cc2cn[nH]c2-c2ccc(OC)cc2)C(=O)Nc2ccc(C)cc2C)cc1
→ -0.7, 1
Cc1cc(C)c(-n2c(SCc3nc4ccccc4s3)n[nH]c2=O)c(C)c1
→ -0.9, nt
NC(=O)c1cc2ccccc2oc1=Nc1ccccc1
→ 1.1, 7

# Overlap with the part before: seven compounds, then new ones.
# Every second line gives: MgrA DNA FP, S aureus helic
CN(C)c1nc(N)nc(Cn2ccnc2)n1
→ -4.4, 0
COc1ccc(CCC(=O)NNc2ccccc2)cc1
→ nt, 9
O=C(c1cnn(-c2cccc(F)c2)c1-n1cccc1)N1CCc2ccccc21
→ nt, -6
CC(OC(=O)c1cccc2ccccc12)C(N)=O (stereo unspecified)
→ nt, 27
CCc1ccc(CN(Cc2cn[nH]c2-c2ccc(OC)cc2)C(=O)Nc2ccc(C)cc2C)cc1
→ -0.7, 1
Cc1cc(C)c(-n2c(SCc3nc4ccccc4s3)n[nH]c2=O)c(C)c1
→ -0.9, nt
NC(=O)c1cc2ccccc2oc1=Nc1ccccc1
→ 1.1, 7
CCCNC(=O)c1cccc(Oc2ccccc2)c1
→ -1.6, -1
Cc1ccc(NC(=O)N2CC=C(c3c[nH]c4ccccc34)CC2)cc1
→ nt, -16
Nn1c(Cc2ccccc2)nnc1SCC(=O)Nc1ccccc1F
→ nt, 7
CN(CC(=O)N1CCCC1)S(=O)(=O)c1ccc2c(c1)c(=O)n(C)c(=O)n2C
→ nt, -13
CSc1ncc(C(=O)NCCN(C)C)c(-c2ccccc2)n1
→ nt, -1
O=c1[nH]c2ccc(NCc3ccc(Cl)cc3)cc2[nH]1
→ -0.2, -9
CNS(=O)(=O)c1ccc(C(=O)NCC(=O)N2CCCC2c2ccc3c(c2)OCCCO3)cc1 (stereo unspecified)
→ nt, -9
Cc1ccc(-c2noc(CN(C(=O)C(c3ccccc3)c3ccccc3)C(C)C)n2)cc1
→ -5.1, 15
CCCn1nnnc1CSc1nnc(-c2cccs2)n1C1CC1
→ nt, -2
O=C(COC(=O)c1ccc2c(=O)n3c(nc2c1)CCC3)Nc1ccccc1
→ nt, 8
OCCNCCSc1nnc(-c2ccccc2)n1-c1ccccc1
→ nt, 13
O=C(O)CCC(=O)Nc1cccc(O)c1
→ -0.1, 5
O=[N+]([O-])c1cc(Cl)c(-n2cccc2)cc1SCc1ccc(Cl)cc1Cl
→ -0.4, nt
N#CC(C#N)=C(N)SCc1ccccc1
→ -0.4, nt
O=C(NC(=S)Nc1ccc(S(=O)(=O)N2CCOCC2)cc1)c1ccc(Br)o1
→ 0.2, 3
O=C(Nc1ccc(N2CCN(Cc3ccccc3)CC2)cc1)c1ncoc1-c1cccs1
→ -2.3, 9
Cc1ccc(N2C(=O)C(N3C(=O)c4ccccc4C3=O)C2c2ccc(N(C)C)cc2)cc1Cl (stereo unspecified)
→ 2.2, -7
CN1C/C(=C/c2cccc3ccccc23)C(=O)/C(=C/c2ccc3ccccc3c2)C1
→ 1.9, -11
CC1Cc2ccccc2N1C(=O)COC(=O)C1CCN(C(=O)Nc2ccccc2)CC1 (stereo unspecified)
→ nt, 11
COc1ccc(C2CC(=O)C3=C(C2)Nc2ccccc2N(C(C)=O)C3c2ccccc2)cc1 (stereo unspecified)
→ 1.1, 15
Oc1ccccc1/C=N/c1ncc(C(F)(F)F)cc1Cl
→ -0.7, 5
N#Cc1cn(-c2ccccc2)nc1-c1cc2ccccc2oc1=O
→ nt, -11
CCOC(=O)COc1ccc2c(=O)cc(-c3ccccc3)oc2c1
→ 0.1, nt
CCN(CC)c1ccc(/C=c2\sc3ncnn3c2=O)cc1
→ 32, -24
CSc1nsc(SC)c1C(=O)NC(=O)N1CCSCC1
→ -1.3, nt
CCN1CCC(NCc2ccccc2Cl)CC1
→ 2.0, 0
CC1(C)CC(=O)C2=C(C1)NC(=O)NC2c1ccc(Cl)cc1 (stereo unspecified)
→ nt, -4
CCCn1c(CCC(=O)N2CCc3ccccc32)nc2cccnc21
→ -0.8, 13
CCOC(=O)c1cc(C)n(N(C)c2cc(C(F)(F)F)ccn2)c1C
→ -1.4, nt
COc1cc(OC)cc(-c2nc3ccccc3c(=O)n2NC(=O)COc2ccc(Cl)cc2Cl)c1
→ 0.4, nt
CC(C)(C)NC(=O)[C@H]1CC[C@H]2[C@@H]3CC[C@H]4NC(=O)C=C[C@]4(C)[C@H]3CC[C@]12C
→ -0.5, nt
CCN(CC)C(=O)Cn1c(S(=O)(=O)C(C)C)nc2ccccc21
→ nt, -6
Cc1ccnc2nc(C(=O)NCC3COc4ccccc4O3)nn12 (stereo unspecified)
→ nt, 21

# 2 entries picked at random from those above:
# Every second line gives: MgrA DNA FP, S aureus helic
CN(CC(=O)N1CCCC1)S(=O)(=O)c1ccc2c(c1)c(=O)n(C)c(=O)n2C
→ nt, -13
O=C(COC(=O)c1ccc2c(=O)n3c(nc2c1)CCC3)Nc1ccccc1
→ nt, 8

# Only part of the results is shown; count on the stated rates, not on these rows.
